Compound activity deposited in PubChem by several laboratories.
Beta cell apopt: blocks beta cell apoptosis; AID 435005; 300,000 tested, 0.8% active; INS-1E cytokine-induced death, ATP luminescence, 48 h; percent of positive-control rescue, neutral wells zero; protection from apoptosis, % (test concentration not listed);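 active = all replicates at 75% or more, or half of them and the mean; inconclusive = half reach 75% but not the mean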;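 note: 0% = cytokine-treated negative control wells and 100% = positive control rescue; higher means more ATP so stronger rescue from cytokine killing; wells of about 40 µL received 100 nL stock; the first replicate is given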
AF4-AF9 inh: blocks AF4 peptide binding to human AF9; P42568; AlphaScreen, biotin-AF4 peptide binding to FLAG-AF9; inhibition, % at 10 µM; 350,000 tested, 0.47% active;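 active = every replicate reaching a set inhibition limit, whatever the replicate mean, cut at about 25% in these data; inconclusive = mean inhibition reaches that limit but some replicates miss it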;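 note: 0% = plate neutral control median and 100% = total signal loss; the record names both 10 and 1 µM as test concentration; the first replicate is given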
Target sequence (P42568 whole entry, looked up): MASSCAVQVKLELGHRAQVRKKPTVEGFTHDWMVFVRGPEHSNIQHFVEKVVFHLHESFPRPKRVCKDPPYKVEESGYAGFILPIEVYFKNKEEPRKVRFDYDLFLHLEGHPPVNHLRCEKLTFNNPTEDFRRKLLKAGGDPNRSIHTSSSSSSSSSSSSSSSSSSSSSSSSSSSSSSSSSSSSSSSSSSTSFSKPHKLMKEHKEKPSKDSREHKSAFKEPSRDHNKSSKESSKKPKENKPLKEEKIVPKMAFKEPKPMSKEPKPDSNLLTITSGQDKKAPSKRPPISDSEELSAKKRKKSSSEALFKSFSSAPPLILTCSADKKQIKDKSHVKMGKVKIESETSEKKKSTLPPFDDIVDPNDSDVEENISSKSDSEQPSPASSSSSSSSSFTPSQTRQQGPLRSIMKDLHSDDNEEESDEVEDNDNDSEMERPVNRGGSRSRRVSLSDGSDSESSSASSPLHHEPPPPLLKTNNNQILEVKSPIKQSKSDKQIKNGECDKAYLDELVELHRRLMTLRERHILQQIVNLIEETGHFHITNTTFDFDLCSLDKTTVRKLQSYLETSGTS
rRNA inh HTS: inhibitors of bacterial rRNA selective over humanized ribosomes; E. coli WT GFP vs humanized-ribosome RFP mutants, fluorescence, 24 h; stronger effect = lower value; DMSO median 0, no signal -100; GFP signal change (wild-type ribosome), % (no concentration beside the values); 350,000 tested, 1.6% active;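 active = significant combined selectivity score with lowered wild-type GFP, culture density cut under 30%, mutant RFP and density less affected; inactive = any of these conditions unmet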; note: one replicate is shown; some compounds called inactive have numbers as strong as hits
T cruzi repl: blocks replication of Trypanosoma cruzi; T. cruzi beta-gal in NIH3T3, luminescence, 90 h; inhibition, % (no concentration beside the values); 300,000 tested, 1.4% active; AID 1885;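 active = mean inhibition across valid replicates above about 55%, limit read from the data; inconclusive = mean below that limit but half or more replicates reach it; inactive = mean below it, under half of replicates reach it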;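 note: signal also drops with host cell toxicity which is not excluded here; 0% = plate median of DMSO wells and 100% = zero luminescence signal; higher percent means less beta-gal luminescence so fewer parasites; stock transfer was 50 nL into about 50 µL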
FGF22 binding: binders of recombinant human FGF22 by thermal shift | SYPRO orange fluorescence; percent of sucrose octasulfate shift, DMSO zero | calls only at 9.99 µM | 340,000 tested, 1.5% active;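 active = melting point raised past a set limit in the mean and every replicate; inconclusive = no clear call; three in four hits are not shown here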
Target sequence (Q9HCT0 whole entry, looked up): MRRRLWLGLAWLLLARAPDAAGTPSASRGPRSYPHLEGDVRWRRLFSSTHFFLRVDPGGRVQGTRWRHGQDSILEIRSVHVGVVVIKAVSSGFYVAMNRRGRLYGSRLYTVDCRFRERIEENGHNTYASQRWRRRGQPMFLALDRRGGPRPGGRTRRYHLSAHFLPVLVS
UCH37 inh: blocks the human deubiquitinase UCH37. purified proteasome/UCH37, Ub-AMC cleavage fluorescence. inhibition, % (no concentration beside the values). 330,000 tested, 0.33% active. AID 588478. Q9Y5K5;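 active = mean of two replicates above 20%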;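 note: 0% = compound-free wells with enzyme and 100% = wells lacking proteasome; stock transfer was 100 nL into about 20 µL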
Target sequence (Q9Y5K5 whole entry, looked up): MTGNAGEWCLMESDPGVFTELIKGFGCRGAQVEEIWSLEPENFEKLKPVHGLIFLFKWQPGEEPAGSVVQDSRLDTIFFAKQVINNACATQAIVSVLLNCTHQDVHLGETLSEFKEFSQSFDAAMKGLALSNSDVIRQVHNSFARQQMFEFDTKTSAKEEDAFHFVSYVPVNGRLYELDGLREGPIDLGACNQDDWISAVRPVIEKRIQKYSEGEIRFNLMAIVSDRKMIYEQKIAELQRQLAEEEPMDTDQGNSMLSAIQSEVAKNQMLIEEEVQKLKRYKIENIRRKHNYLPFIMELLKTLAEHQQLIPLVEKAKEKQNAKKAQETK
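Material: human UCH37 enzyme supplied as purified proteasome complex. Measure: % inhibition of Ub-AMC cleavage fluorescence. Medium: pH 7.4 Tris-HCl (50 mM) with ovalbumin, ATP-MgCl2, DTT. Times: 30 min preincubation with enzyme, 25 min cleavage at room temperature. Detection: AMC fluorescence intensity at 355/460 nm.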
Ecoli growth: E. coli growth inhibition; 330,000 tested, 0.21% active; Escherichia coli growth, OD600, 23 h; stronger effect = lower value; OD600 absorbance (no concentration beside the values); AID 1053175;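 active = OD600 absorbance below the run mean of sample wells minus 3.6 SD, in any replicate, cut at about 0.56 in these data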;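 note: stock transfer was 300 nL into about 60 µL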
A1 inh: inhibitors of the anti-apoptotic protein A1, read as caspase activation; MEF A1-2A-BIM cells, Caspase-Glo 3/7 luminescence, 3 h; percent of clofoctol response, vehicle zero; caspase activation, % (test concentration not listed); 330,000 tested, 0.066% active;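 active = over half of replicate activation scores above 10%, or exactly half above 10 with the replicate mean above 10; inconclusive = replicate mean below 10 yet half the replicates above 10; inactive = over half of replicates below 10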;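 note: wells of about 30 µL received 50 nL stock; many hits fall short of the cut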
rRNA inh HTS OD600: further read-out of rRNA inh HTS, marked with its call; OD600 change, %; measured here: OD600 growth;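 optical density of the mix in the first replicate; 0 = DMSO median and -100 = no signal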
rRNA inh HTS RFP: second read-out of rRNA inh HTS, no call of its own (marks repeat the call); RFP signal change, %; measured here: RFP humanized mutant strains;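 first replicate; 0 = DMSO median and -100 = no signal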
The depositor's hits bear a star; i = inactive; ? = inconclusive; nt = not tested or not shown; + = active, no number.

SMILES | Beta cell apopt | AF4-AF9 inh | rRNA inh HTS | rRNA inh HTS OD600 | rRNA inh HTS RFP | T cruzi repl | FGF22 binding | UCH37 inh | Ecoli growth | A1 inh
COCCn1c(C)cc(C(=O)COC(=O)c2ccc(NC(=O)CC#N)cc2)c1C | 1.0 | nt | nt | nt | nt | -8.2 | nt | -0.8 | 0.734 | -3.7
Cc1cc(NC(=O)OC(C)C)ccc1-c1ccc(NC(=O)OC(C)C)cc1C | 6.0 | -0.3 | 6.7 | 4.9 | 0.1 | 19.3 | i | nt | nt | 0.3
Cc1cccc2cc(CN(Cc3ccc(F)cc3)C(=O)C(F)(F)F)c3nnnn3c12 | 10.6 | nt | nt | nt | nt | 11.6 | nt | -0.5 | 0.673 | -0.1
C=CCOC(=O)CN1C(=O)c2ccccc2C1=O | nt | nt | nt | nt | nt | -13.4 | nt | 3.6 | 0.706 | 0.0
Cc1ccc(-c2ccc(NC(=O)C3C4C=CC(C4)C3C(=O)O)cc2)o1 (stereo not given) | 5.7 | nt | nt | nt | nt | 10.6 | nt | 0.9 | 0.644 | -0.6
O=C(NC1CCS(=O)(=O)C1)c1c(NC(=O)C2COc3ccccc3O2)sc2c1CCCC2 (stereo not given) | 11.3 | nt | nt | nt | nt | 28.1 | nt | 4.6 | 0.83 | -0.3
Cc1nnc(SCC(=O)c2cc(C)n(-c3c(C)n(C)n(-c4ccccc4)c3=O)c2C)s1 | -3.0 | nt | nt | nt | nt | -5.2 | nt | 5.2 | 0.698 | 0.5
COc1ccc(OC(C)c2nnc(N)s2)cc1 (stereo not given) | -7.2 | -1.5 | 5.9 | 8.2 | 5.1 | -4.8 | i | -2.8 | 0.647 | -0.2
CCC1CCCCN1CC(=O)c1c(C)[nH]c2cc(C)ccc12 (stereo not given) | -6.4 | 1.0 | 2.9 | 4.6 | 5.5 | 22.8 | i | 1.7 | 0.641 | 0.6
N#CC1=C(SCC(=O)c2cc3ccccc3oc2=O)NC(=O)C(C#N)C12CCCC2 (stereo not given) | -2.6 | nt | nt | nt | nt | -26.1 | nt | 2.2 | 0.729 | 0.4
Cc1ccccc1OCc1n[nH]c(=S)n1-c1ccccc1 | -2.0 | -3.1 | -7.2 | -13.6 | -2.1 | -21.5 | i | 0.2 | 0.683 | 1.1
O=C(Cn1c(NCCO)nc2ccccc21)c1ccc(Cl)cc1Cl | 6.3 | 3.2 | -11.1 | -11.4 | 0.8 | 1.5 | i | 5.2 | 0.664 | 0.4
Cc1ccccc1N(CC(=O)NCCSC1CCCCC1)S(=O)(=O)c1ccccc1 | 3.0 | nt | -22.6 | -36.0 | 1.4 | 5.9 | nt | 2.0 | 0.662 | 0.1
CSCCC1NC(=O)N(CC(=O)Nc2c(Cl)cc(Cl)cc2Cl)C1=O (stereo not given) | 1.1 | nt | nt | nt | nt | -0.6 | nt | 2.1 | 0.66 | ?
COc1ccc(NC(=O)COC(=O)CCCc2c[nH]c3ccccc23)cc1 | nt | nt | nt | nt | nt | -18.4 | nt | 1.8 | 0.713 | 0.2
COc1ccc(C2=C(C)CC(C)(C)NC2=O)cc1OC | -1.8 | nt | nt | nt | nt | -3.3 | nt | -1.4 | 0.697 | 0.1
O=C(Nc1ccccc1)N1CCc2ccccc21 | nt | nt | nt | nt | nt | -3.5 | nt | 0.9 | 0.676 | -7.6
COc1ccccc1N1CCN(CC(C)N(C(=O)C2CCCCC2)c2ccccn2)CC1 (stereo not given) | -5.3 | 2.1 | 6.1 | 3.3 | -2.5 | 8.4 | i | 1.0 | 0.609 | -0.7
CCS(=O)(=O)c1ccc2oc(SCC(=O)NCCc3ccc(F)cc3)nc2c1 | -2.1 | -0.4 | -16.7 | -10.1 | -8.0 | 0.1 | i | 2.6 | 0.715 | -0.7
CCC(C)N1C(=O)CCC1C(=O)NCCc1ccc(Cl)cc1 (stereo not given) | -2.4 | 2.9 | 5.1 | 12.6 | 3.0 | -7.0 | i | 3.8 | 0.695 | 0.1
CN(CC(=O)Nc1ccc(F)cc1)C(=O)C1Cc2ccccc2CN1S(C)(=O)=O (stereo not given) | nt | -0.1 | -2.9 | 4.8 | -2.1 | nt | i | 3.4 | 0.683 | nt
COc1ccc(N2CCN(C(=O)c3cccc(Br)c3)CC2)c([N+](=O)[O-])c1 | -1.5 | 4.5 | -22.3 | -22.4 | 2.4 | 3.3 | i | 4.6 | 0.691 | 1.6
Cn1c2ccccc2n2c(=O)c(=O)n(CC(=O)c3ccc(F)cc3)nc12 | -7.3 | nt | nt | nt | nt | -32.6 | nt | -19.5 | 0.672 | 0.6
CC(C)C[C@H](NC(=O)c1[nH]cnc1C(=O)Nc1ccc(CNC(=O)OC(C)(C)C)cc1)C(=O)OC(C)(C)C | 24.2 | 5.4 | 18.4 | -1.6 | 4.9 | 39.7 | i | 1.9 | nt | 2.1
CCN(CC)C(=O)[C@H]1C[C@H](CC(=O)NCCc2ccccn2)C(=O)N2CCc3c([nH]c4cc(-c5ccco5)ccc34)[C@]12C | nt | 2.6 | 19.3 | 13.4 | 4.0 | nt | i | -27.2 | 0.681 | nt
O=C(Oc1ccc([N+](=O)[O-])cc1)c1cc(-c2ccccc2)nc2ccccc12 | nt | nt | nt | nt | nt | -6.5 | nt | 5.8 | 0.776 | -0.8
O=C(COC(=O)c1cccc(-n2cnnn2)c1)c1ccccc1 | -7.1 | -1.3 | 13.1 | 8.1 | 2.6 | -18.9 | i | 3.2 | 0.65 | 0.3
CCCC(C)NCC(=O)Nc1ccccc1-c1ccccc1 (stereo not given) | -5.4 | nt | nt | nt | nt | -1.6 | nt | 0.8 | 0.677 | -0.2
O=C(NC12CC3CC(CC(C3)C1)C2)N1CCN(C(=O)c2ccco2)CC1 | -2.5 | nt | nt | nt | nt | -12.9 | nt | 0.7 | 0.695 | 0.7
Cc1ccc(NC(=O)c2sc(N)nc2-c2ccc([N+](=O)[O-])cc2)cc1C | 3.7 | 2.1 | 17.6 | 14.9 | -7.6 | -7.8 | i | 2.8 | 0.737 | 1.1
Clc1ccc(/C(Cc2nc3ccccc3[nH]2)=N\Nc2ccccc2)cc1 | 3.3 | 3.8 | 1.8 | 0.2 | 0.2 | 39.5 | i | nt | nt | -0.7
COCCNC(=O)CN(c1ccccc1OC)S(C)(=O)=O | -4.6 | 6.4 | 10.9 | -0.4 | -7.2 | -1.2 | i | 3.1 | 0.681 | 1.2
CCOc1ccc(Nc2ncnc(N)n2)cc1 | -2.8 | 2.5 | 9.8 | 6.9 | -0.4 | -12.3 | i | 0.1 | 0.607 | 0.7
CCCN(CCC)C(=O)Cn1c(=O)n(CCCCC(=O)NC2CCCC2)c(=O)c2ccccc21 | -4.7 | nt | nt | nt | nt | 7.3 | nt | 1.8 | 0.717 | 2.9
COc1ccc(CNCc2c(C(=O)N(C)C)nc3ccc(Cl)cn23)c(OC)c1 | -6.7 | 1.1 | 11.7 | -4.4 | 0.5 | 6.8 | i | 0.2 | 0.697 | 1.1
COc1ccc(N2CCN(C(=O)c3cccc(NC(=O)c4ccco4)c3)CC2)cc1 | 9.6 | 3.7 | -0.5 | 5.6 | 0.6 | 6.8 | i | -1.6 | 0.68 | -1.2
Cc1ccc(-c2n[nH]c(=S)n2/N=C/c2c(C)[nH]n(-c3ccccc3)c2=O)cc1 | -2.2 | -1.2 | -27.2 | -22.4 | -4.0 | -11.0 | + | nt | nt | 0.5
O=C(CSc1n[nH]c(-c2cccnc2)n1)Nc1ccccc1 | -15.7 | nt | nt | nt | nt | -9.2 | nt | -1.3 | 0.734 | 0.5
CC(C)C(=O)Nc1nnc(CCc2nnc(NC(=O)C(C)C)s2)s1 | -1.6 | nt | nt | nt | nt | 1.9 | nt | 0.2 | 0.73 | 0.2
O=Cc1cn(CCOc2ccccc2)c2ccccc12 | 6.0 | -42.6 | 9.2 | 10.3 | 2.7 | 4.6 | i | -0.3 | 0.632 | 0.1
O=P(CCNCc1ccco1)(c1ccccc1)c1ccccc1 | nt | nt | nt | nt | nt | 2.3 | nt | 2.4 | 0.817 | -0.3
NC(=O)COc1ccc(-n2cnnn2)cc1 | 7.6 | -1.0 | 11.8 | 11.6 | 4.3 | -6.0 | i | 3.3 | 0.665 | 0.2
CC(=O)c1sc(NC(=O)c2ccccc2)nc1-c1ccccc1 | -13.0 | -0.2 | -20.2* | -10.1* | 1.5* | -7.7 | i | 1.0 | 0.678 | -6.9
CN1CCN(CCCNC(=O)CN2C(=O)COc3ccccc32)CC1 | -5.3 | -6.3 | 8.5 | 11.4 | -4.1 | 11.1 | i | 1.2 | 0.623 | -0.5
COC(=O)Cc1csc(/N=C/c2c(O)n(-c3cccc(C(F)(F)F)c3)c(=O)c3ccccc23)n1 | 27.0 | 0.0 | 13.8 | 15.7 | -0.9 | 10.2 | i | -31.0 | 0.723 | ?
CC12CCC(C)(c3nc4ccccc4nc31)C2(C)C | -3.2 | -3.4 | 13.4 | 9.7 | 0.1 | 15.5 | i | 5.8 | 0.676 | 0.2
Cc1ccccc1Nc1c([N+](=O)[O-])ccc2nonc12 | -1.9 | 8.0 | 16.9 | 9.4 | 3.4 | 0.6 | i | 2.4 | 0.656 | -0.2
CCN(CC)C(CNS(=O)(=O)c1ccc(Cl)cc1)c1ccccc1 (stereo not given) | 5.0 | 1.9 | 5.9 | 0.2 | 0.3 | -1.2 | i | -0.5 | 0.699 | 0.3
O=C(Cc1c(F)cccc1Cl)Nc1ccccc1C(=O)N1CCOCC1 | -5.9 | -1.7 | 7.8 | 3.4 | -0.1 | -3.7 | i | 0.6 | 0.69 | 0.8
O=C(Nc1ccncc1)Nc1cccc(Cl)c1Cl | 11.2 | -1.7 | -6.5 | -37.4 | -4.3 | 65.8* | i | 4.6 | 0.626 | 0.9
COc1ccc(-c2csc(Cc3nnc(N4CCOCC4)n3-c3ccccc3)n2)cc1OC | -2.8 | -19.0 | 1.2 | 8.0 | 4.0 | -5.4 | i | 1.2 | 0.658 | 0.8
CN1C(=O)NC(c2ccc(Cl)cc2)C2=C1CC(C)(C)CC2=O (stereo not given) | -3.8 | -0.7 | 2.1 | 11.2 | -2.5 | -6.7 | i | 1.9 | 0.656 | -0.1
O=C(C[n+]1cc(-c2ccc(F)cc2)n2c1CCC2)N1c2ccccc2Sc2ccccc21 | 14.5 | 9.8 | -50.2 | -77.9 | -30.6 | 45.7 | i | 8.0 | 0.685 | -1.8
Cc1occc1C(=O)NCc1ccco1 | nt | -4.0 | nt | nt | nt | -23.3 | i | 2.7 | 0.722 | 0.6
COc1ccc(NC(=O)c2coc3ccccc23)cc1OC | 5.7 | nt | nt | nt | nt | 4.1 | nt | 6.4 | 0.68 | -1.4
CCn1c(C(=O)N2CCCC(C(=O)NCCCc3ccccc3)C2)cc2sccc21 (stereo not given) | -0.3 | nt | nt | nt | nt | -3.7 | nt | 3.2 | 0.699 | -0.1

The list is partial; rates above refer to the full screens.
